# H5N1 CPE = MDCK cell protection from H5N1 avian flu; cytopathic effect, luminescence, 72 h; stronger effect = higher value; no value below 0 was filed and about half of the inactive calls have no number; reference of the scale not given here; 96,000 tested, 0.07% active; inhibition, % at 50 µM; AID 740; in the data active = inhibition above about 25%
# An asterisk follows results filed as active; i = inactive. The list is partial, so the mix of outcomes need not match the whole.
SMILES,H5N1 CPE
O=C(NCC(c1cccnc1)N1CCN(c2ccccc2)CC1)C1CCCCC1 (stereo unspecified),0.5
CC(=O)C(C)Oc1ccc2c3c(c(=O)oc2c1)CCCCC3 (stereo unspecified),0.2
Cc1ccccc1OCCCC(=O)Nc1ccc(Br)cc1,i
COC(=O)C(CC(C(=O)OC)C(=O)OC)C(=O)OC,0.1
CN(c1ccccc1C(=O)Nc1ccc(S(=O)(=O)N2CCCCC2)cc1)S(C)(=O)=O,0.1
N=c1n(CCO)c2ccccc2n1CCOc1ccc(Cl)cc1Cl,i
Cn1c(=O)cc(OCCCC(=O)N2CCC3(CC2)OCCO3)c2ccccc21,0.9
CCc1cccc(N=c2c([N+](=O)[O-])nn(-c3ccc(Cl)cc3)n2O)c1,i
O=C(CCN1C(=O)c2ccccc2C1=O)N(CCO)Cc1ccccc1,0.1
O=C(CCN1C(=O)COc2ccccc21)NCCCN1CCN(c2ccc(F)cc2)CC1,0.9

# Brought forward from above: 2 entries, followed by the next part.
SMILES,H5N1 CPE
O=C(CCN1C(=O)c2ccccc2C1=O)N(CCO)Cc1ccccc1,0.1
O=C(CCN1C(=O)COc2ccccc21)NCCCN1CCN(c2ccc(F)cc2)CC1,0.9
COc1ccc(C(=O)Nc2ccc(OCc3ccccc3)cc2)cc1[N+](=O)[O-],i
O=C(O)CC(c1ccc(Cl)cc1)n1cccc1 (stereo unspecified),0.2
CC12CC3CC(C)(C1)CC(CN)(C3)C2,i
O=c1n(-c2ccccc2)c(=O)n2n1CCC2,i
CCn1c(SCC(=O)Nc2oc(-c3ccccc3)c(-c3ccccc3)c2C#N)nnc1-c1cc(OC)cc(OC)c1,2.7
COCCCNC(=O)c1ccc(N2CCCC2)c(NS(=O)(=O)c2ccc(C)cc2)c1,i
Cn1nnc2cc(NC(=O)N3CCN(c4ccccn4)CC3)ccc21,i
O=C(O)CCC(=O)c1ccc2c(c1)OCCO2,i
CC(=O)Nc1sc2c(c1C(=O)N1CCOCC1)CCCCC2,0.7
COc1cccc(-n2c(Cc3cc(=O)[nH]c(=O)[nH]3)nnc2SCC(=O)N2CCCC2)c1,0.1
COCCNC(=O)CN(CCc1ccccc1)S(=O)(=O)c1ccc(OC)cc1,0.2
COCCn1c(=N)c(C(=O)NCc2ccco2)cc2c(=O)n3ccccc3nc21,16.9
COC(=O)Nc1nnc(-c2ccccc2Cl)s1,i
COC(=O)C1=C(C)N(CC2CCCO2)C(=O)C1 (stereo unspecified),i
CN(C)c1nc2c(c(=O)[nH]c(=O)n2C)n1Cc1ccccc1Br,1.6
CN(C1CCCCC1)S(=O)(=O)c1ccc(NC(=S)NC(=O)c2cccs2)cc1,i
CCCC(c1nnnn1CC(=O)OCC)N(Cc1cc2ccc(C)cc2[nH]c1=O)C1CCCC1 (stereo unspecified),i
CCCCCCCCCCSc1n[nH]c(NC(C)=O)n1,i
Cc1ccc(CC(NC(=O)c2ccccc2)C(=O)NCC(=O)O)cc1 (stereo unspecified),1.2
Cc1ccc(N=Cc2c(O)n(-c3ccc4c(c3)OCO4)c(=O)c3ccccc23)cc1,i
CC(NC(=O)Cc1ccsc1)c1ccc(S(N)(=O)=O)cc1 (stereo unspecified),i
CCOC(=O)N1CCN(CC(=O)c2c[nH]c3ccc(F)cc23)CC1,0.2
Cc1c(Cl)cccc1N(CC(=O)N1CCCCCC1)S(C)(=O)=O,i
O=C(COc1ccccc1)N1CCN(Cc2c[nH]c3ccccc23)CC1,i
CN1CCN(C(=O)CSc2nc(-c3cccs3)ccc2C#N)CC1,6.6
CC(C)Nc1cc(N2CCCC2)ccc1[N+](=O)[O-],0.3
CC(=O)NCCc1nc2ccccc2n1Cc1ccc(C)cc1,0.6
COc1ccccc1CNC(=O)c1ccccc1N,1.1
Cc1cccc(C)c1NC(=O)CS(=O)CC(=O)Nc1ccc(F)cc1F (stereo unspecified),i
COc1ccc(OC)c(CCNC(=O)CC2Oc3ccc(C)cc3NC2=O)c1 (stereo unspecified),i
CCOc1ccccc1N(CC(=O)OC)S(=O)(=O)c1ccccc1,i
COc1ccccc1NC(=O)c1ccc(Cl)c(S(=O)(=O)N2CCOCC2)c1,0.1
O=C(NC1CCCCC1)c1cc2nc3c(c(C(F)(F)F)n2n1)CCCC3,1.2
CCCOc1ccc(C(=O)NC(=S)Nc2nc(C)c(C(=O)N(C)C)s2)cc1,0.6
Cc1ccc(C)c(NC(=O)CN(C)C(=O)CCN2C(=O)c3ccccc3C2=O)c1,0.9
CCCC1C2C(=O)N(c3ccccc3OCC)C(=O)C2ON1c1ccccc1 (stereo unspecified),0.2
O=C1CC(N2CCN(c3nc4ccccc4s3)CC2)C(=O)N1c1cccc(F)c1 (stereo unspecified),i
COc1ccc(-c2cc(C(F)(F)F)nc(-n3cncn3)n2)cc1,1.9
O=C(NCc1ccccn1)c1n[nH]c2ccccc12,i
Cc1ccc(C)c(N(CC(=O)NC2CCCC2)C(=O)c2oc(C(C)(C)C)cc2C)c1,i
COc1ccc(C(=O)Cn2nnc(-c3ccccc3NC(=O)C3CCCCC3)n2)cc1,i
O=C(O)CC(C(=O)O)n1nc(-c2ccccc2)cc1-c1ccccc1 (stereo unspecified),i
N#Cc1c(NC(=S)NC(=O)Cc2cccs2)sc2c1CCCCC2,0.5
O=c1nc(-c2ccccc2)cc(C(F)(F)F)[nH]1,i
COC(=O)c1cn(NC(=O)c2cccnc2)c(=O)c2ccccc12,i
CCC(C)NCC(O)COCc1ccc(Cl)cc1 (stereo unspecified),i
CC1CCN(C(=O)Cn2cc(C(=O)c3ccco3)c3ccccc32)CC1,1.0
Cc1ccc(/C(N)=N/OC(=O)CCC2CCCCC2)cc1,i
COc1ccc(CN2CCC(C(=O)N3CCN(c4ccccc4F)CC3)CC2)cc1OC,i
COc1cccc(C(NC(=O)c2ccccc2F)NC(=O)c2ccccc2F)c1,i
# Next section:
SMILES,H5N1 CPE
Cc1cccc(C(=O)OCC(=O)Nc2nccs2)c1,0.5
Cc1cc(C)nc(NC2=NCC(=O)N2c2cccc(Cl)c2)n1,0.8
COC(=O)c1cc(OC)c(OC)cc1NC(=O)Cn1nnc(-c2ccccc2Cl)n1,0.2
Cc1c(NC(=O)C(C)Sc2n[nH]c(N)n2)c(=O)n(-c2ccccc2)n1C (stereo unspecified),i
Cc1nc2ccccc2c(=O)n1NC(=O)c1ccccc1Cl,1.8
Cc1ccc(-c2ccc(/C=N\NC(=O)c3cc4c(ccc5ccccc54)o3)o2)cc1[N+](=O)[O-],i
O=C(CC1SCCNC1=O)Nc1cccc(Cl)c1 (stereo unspecified),1.8
NC(=O)c1cc(S(=O)(=O)NC2CCCCC2)co1,1.4
O=C(OCC#CCSc1nnc(-c2cccc3ccccc23)o1)c1cccs1,i
O=C(CN1C(=O)C2CC=CCC2C1=O)NCC1COc2ccccc2O1 (stereo unspecified),0.1
Cc1ccnc(NC2OC(=O)c3ccccc32)c1 (stereo unspecified),i
Cc1ccc(CCNC(=O)C2CCCN(S(=O)(=O)c3c(C)nn(C)c3C)C2)cc1 (stereo unspecified),0.0
O=C(CN1C(=O)C2(OCCCO2)c2ccccc21)NCc1ccccc1,0.3
Cc1cc(C)cc(NC(=S)NC2CC3CCCC(C2)N3Cc2cccs2)c1 (stereo unspecified),i
COc1ccc(NCc2nnc(SCC(=O)c3ccc(OC)cc3)n2C)cc1,i
Cc1ccc(Nc2nc(N)nc(CC#N)n2)cc1,0.8
O=C(NC1CCC(O)CC1)c1ccc(S(=O)(=O)NCc2ccco2)cc1 (stereo unspecified),0.2
CC(C)(C)C(=O)COC(=O)c1cc2ccccc2cc1O,i
O=C(CN(C1CCCCC1)C1CCCCC1)N1CCc2ccccc2C1,i
COc1cc(C2C(C#N)=C(N)Oc3cc(N)ccc32)cc(OC)c1OC (stereo unspecified),0.2
O=C1OC(Nc2ccc(Cl)cn2)c2ccccc21 (stereo unspecified),i
O=C(COC(=O)C1=Cc2ccccc2OC1)NC1CCCC1,0.8
COc1ccc(CCNC(=O)CSCc2n[nH]c(=O)[nH]2)cc1OC,i
CN1CCN(C(=O)c2cn(C)c3ccc(S(=O)(=O)N(C)C4CCCCC4)cc3c2=O)CC1,1.7
CCOc1nc(-c2ccccc2)ccc1-c1noc(-c2ccncc2)n1,0.3
O=C(Nc1ccc2c(c1)OCO2)c1cc2nc(C3CC3)cc(C(F)(F)F)n2n1,i
Cc1ccc(-c2nnn(CC(=O)N(c3ccccc3F)C(CC(C)C)C(=O)NCC3CCCO3)n2)cc1 (stereo unspecified),1.5
Cc1cc(=O)[nH]c(Nc2ccc(C(=O)OC(C)C)cc2)n1,5.7
CCOC(=O)CCCNC(=O)COC(=O)c1ccc(O)cc1,i
CC(=O)Nc1ccc(NC(=O)c2ccccc2F)cc1,0.5
C=CCn1c(SCc2ccccc2)nnc1-c1cccnc1,0.1
Cc1ccc(C)c(NS(=O)(=O)c2ccc(NC(=O)c3ccco3)cc2)c1,i
Cc1occc1C(=O)Nc1ccc2c(c1)OCO2,i
Cc1cc(C)nc(Nc2ncc(O)n2-c2ccc(C)c(Cl)c2)n1,0.1
COc1ccc(CCN2C(=O)C3C4CC(C5C(C(=O)NN)=NOC45)C3C2=O)cc1OC (stereo unspecified),0.3
Cc1oc(C(=O)Nc2ccc(C(=O)O)cc2)cc1COc1ccccc1,i
C=CCn1c(CCCNC(=O)C(C)(C)C)nc2ccccc21,i
O=C(c1ccccc1)N1CCN(Cc2c[nH]c3ccccc23)CC1,i
S=c1[nH]nc(-c2cccnc2)o1,i
COCCNC(=O)C1CCC(Cn2c(=S)[nH]c3ccccc3c2=O)CC1 (stereo unspecified),1.5
CC(=O)c1cccc(NC(=O)N2CCCC2C(=O)Nc2c(C)cccc2C)c1 (stereo unspecified),i
O=C(OCC(=O)N1CCN(c2ccccc2)CC1)c1ccccn1,0.1
Cc1n[nH]c(C)c1S(=O)(=O)N1CCC(C(=O)N2CCn3c2nc2ccccc23)CC1,4.0
N#Cc1nc(Cc2cccc3ccccc23)oc1N1CCCCC1,1.1
O=C(O)Cc1nc2nc3c(c(=O)n2[nH]1)CCCC3,i
COC(=O)c1[nH]c2ccc(Cl)cc2c1NC(=O)Oc1ccccc1,i
COc1ccc(N(CC(=O)NC2CCCC2)C(=O)Cn2nnc(-c3ccc(F)cc3)n2)cc1OC,i
COc1ccc(S(=O)(=O)Cc2ccc(C(=O)NC3CCCC3)o2)cc1,0.8
CCOc1ccc(CCNC(=O)CCCN2C(=O)c3ccccc3C2=O)cc1OCC,i
O=C(O)C1CSCN1S(=O)(=O)c1cccc2nsnc12 (stereo unspecified),0.9

# Retrieved by compound from the entries so far (three):
SMILES,H5N1 CPE
CN(c1ccccc1C(=O)Nc1ccc(S(=O)(=O)N2CCCCC2)cc1)S(C)(=O)=O,0.1
N#Cc1nc(Cc2cccc3ccccc23)oc1N1CCCCC1,1.1
CC(=O)c1cccc(NC(=O)N2CCCC2C(=O)Nc2c(C)cccc2C)c1 (stereo unspecified),i

# The listing continues.
SMILES,H5N1 CPE
O=C(c1ccc(Cl)c(S(=O)(=O)Nc2ccc(F)cc2)c1)N1CCN(c2ccccn2)CC1,i
O=C(O)/C=C1\NC(=O)c2ccccc21,i
O=c1[nH]c(N2CCc3ccccc3C2)nc2c1CCC2,1.6
CO/N=C/c1ccc(N2CCN(C(=O)c3ccc(C)cc3)CC2)c([N+](=O)[O-])c1,2.3
O=C(CC(c1ccccc1)c1ccccc1O)NCCN1CCOCC1 (stereo unspecified),0.3
CC(=O)Nc1ccc(NC(=O)/C(Cl)=C/c2ccccc2)cc1,i
CC(=O)c1cccc(NC(=O)C2CCN(S(=O)(=O)c3cccs3)CC2)c1,19.7
O=C(c1ccc(N2CCNCC2)cc1)c1cccnc1,0.6
CC(NC(=O)C1(C)CC1(Br)Br)C(C)(C)C (stereo unspecified),0.4
Cc1ccc(Sc2nc(C)cc(C)c2S(C)(=O)=O)cc1,0.4
CCOc1ccc(CCNC(=O)c2cc3sc(Cl)cc3n2C)cc1OCC,i
Cc1ccc(C)c(NS(=O)(=O)c2cc(Br)cnc2N)c1,i
O=C(Nc1ccccc1)N1CCSCC1,i
CCOC(=O)c1nn(C23CC4CC(CC(C4)C2)C3)c2c1C(=O)N(c1ccc(C)cc1)C2=O,0.4
Cc1ccc(Nc2c([N+](=O)[O-])c(=O)n(C)c3ccccc23)cc1C,i
COc1cc(OC)c(Cl)cc1N,i
CCOC(=O)c1c(C)n(C)c2ccc(OCC(O)CN3CCC(C)CC3)cc12 (stereo unspecified),i
Cc1ccc(CNC(=O)c2cn(C3CCCC3)c(=O)c3c2c2ccccc2n3C)o1,i
NC(=O)c1ccsc1NC(=O)COC(=O)Cc1cccc2ccccc12,i
O=C(COc1ccccc1)NNc1c2ccccc2nc2ccccc12,4.7
CNC(=O)c1nn(-c2ccccc2)ccc1=O,i
COC(=O)c1ccccc1NC(=O)c1ccc(-c2ccccc2F)o1,0.6
Cc1cc(C)cc(OCC(=O)N(Cc2cccs2)C2CCS(=O)(=O)C2)c1 (stereo unspecified),0.3
CCOC(=O)c1ccc(NS(C)(=O)=O)cc1,i
COc1cccc(NC(=O)CNC(C)CCC(C)C)c1 (stereo unspecified),i
CCOC(=O)c1ccc2c(c1)nc(C1CCN(S(=O)(=O)c3cccs3)CC1)n2CC,4.5
O=C(c1cccc(S(=O)(=O)N2CCOCC2)c1)N1CCCCCC1,i
Cn1nnnc1SCC(=O)N1CCN(c2ccc(Cl)cc2)CC1,0.5

# Sorted by heavy-atom count (highest first): 13 of the compounds above.
SMILES,H5N1 CPE
CCOC(=O)c1nn(C23CC4CC(CC(C4)C2)C3)c2c1C(=O)N(c1ccc(C)cc1)C2=O,0.4
Cc1ccc(CNC(=O)c2cn(C3CCCC3)c(=O)c3c2c2ccccc2n3C)o1,i
CCOC(=O)c1c(C)n(C)c2ccc(OCC(O)CN3CCC(C)CC3)cc12 (stereo unspecified),i
CCOc1ccc(CCNC(=O)c2cc3sc(Cl)cc3n2C)cc1OCC,i
O=C(COc1ccccc1)NNc1c2ccccc2nc2ccccc12,4.7
COC(=O)c1ccccc1NC(=O)c1ccc(-c2ccccc2F)o1,0.6
Cc1ccc(Nc2c([N+](=O)[O-])c(=O)n(C)c3ccccc23)cc1C,i
Cn1nnnc1SCC(=O)N1CCN(c2ccc(Cl)cc2)CC1,0.5
Cc1ccc(Sc2nc(C)cc(C)c2S(C)(=O)=O)cc1,0.4
CNC(=O)c1nn(-c2ccccc2)ccc1=O,i
CCOC(=O)c1ccc(NS(C)(=O)=O)cc1,i
CC(NC(=O)C1(C)CC1(Br)Br)C(C)(C)C (stereo unspecified),0.4
COc1cc(OC)c(Cl)cc1N,i

# Screening results deposited in PubChem by SRMLSC.
